# Rce1 inh: blocks yeast Ras-converting enzyme. Q03530. yeast membranes, quenched prenylated peptide cleavage fluorescence. calls only. 290,000 tested, 0.27% active. AID 2563;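 active = fall in fluorescence gain of 50% or more versus controls, with final raw signal at or below 3038400; inconclusive = same 50% fall but final raw signal above 3038400; inactive = fall in fluorescence gain under 50%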;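 also: plate controls were neutral control wells for no effect and wells lacking membranes for full effect; tested at 10 µM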
# Target sequence (Q03530 whole entry, looked up): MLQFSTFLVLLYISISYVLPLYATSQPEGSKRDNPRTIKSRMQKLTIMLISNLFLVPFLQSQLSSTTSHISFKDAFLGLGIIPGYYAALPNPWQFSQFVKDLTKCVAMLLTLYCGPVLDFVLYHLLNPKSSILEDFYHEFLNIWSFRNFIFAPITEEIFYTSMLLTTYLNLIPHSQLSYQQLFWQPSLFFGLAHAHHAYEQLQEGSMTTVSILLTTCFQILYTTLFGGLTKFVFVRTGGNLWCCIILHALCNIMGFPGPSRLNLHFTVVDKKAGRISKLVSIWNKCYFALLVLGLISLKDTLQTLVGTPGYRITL
# Env fusion inh: inhibitors of HIV Env-mediated cell fusion; 360,000 tested, 1.1% active; HeLa-JRFL Env/CEM21 cell fusion, luciferase; inhibition, % at 12.3 µM; AID 651610;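 active = mean replicate inhibition score of at least 50 and every replicate individually at or above 50; inconclusive = only one of the two criteria met; inactive = mean below 50 and not all replicates reaching 50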;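 also: 0% = plate neutral controls and 100% = maraviroc near 300 nM; one replicate is shown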
# MT1-MMP act inh: inhibitors of human MT1-MMP activation; P50281; HT1080 RFP-PRO-GFP cells, GFP/RFP ratio fluorescence, overnight; percent of plate control window, DMSO zero; GFP/RFP ratio change, % at 20 µM; 360,000 tested, 0.061% active;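 active = GFP/RFP ratio change of at least 30% with cell ATP level not reduced by more than half and red fluorescence within 50% of control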; also: strong numbers were not always called active
#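 Compound: 20 µM single dose, 1% DMSO / System: HT1080 RFP-PRO-GFP cells / Controls: DMSO and RFP-L50D-GFP cell wells / Read-out basis: GFP/RFP fluorescence ratio / Schedule: overnight compound exposure at 37 °C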
# PABP FP inh: PABP-poly(A) binding inhibition; 290,000 tested, 1% active; PABP-poly(A) RNA binding, fluorescence polarization; inhibition, % at 35 µM; P11940;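 active = 50% or more with normal probe brightness, or confirmed in later tests; inconclusive = above 50% with abnormal brightness, or retests that disagree; inactive = below 50% or failed in later tests; about a fifth of its hits are not listed in these tables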;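 also: calls also rest on retests at 20 µM and on dose response follow-up; controls were probe without protein and protein plus probe with vehicle; some compounds called inactive have numbers as strong as hits; many hits fall short of the cut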
# Target sequence (P11940 whole entry, looked up): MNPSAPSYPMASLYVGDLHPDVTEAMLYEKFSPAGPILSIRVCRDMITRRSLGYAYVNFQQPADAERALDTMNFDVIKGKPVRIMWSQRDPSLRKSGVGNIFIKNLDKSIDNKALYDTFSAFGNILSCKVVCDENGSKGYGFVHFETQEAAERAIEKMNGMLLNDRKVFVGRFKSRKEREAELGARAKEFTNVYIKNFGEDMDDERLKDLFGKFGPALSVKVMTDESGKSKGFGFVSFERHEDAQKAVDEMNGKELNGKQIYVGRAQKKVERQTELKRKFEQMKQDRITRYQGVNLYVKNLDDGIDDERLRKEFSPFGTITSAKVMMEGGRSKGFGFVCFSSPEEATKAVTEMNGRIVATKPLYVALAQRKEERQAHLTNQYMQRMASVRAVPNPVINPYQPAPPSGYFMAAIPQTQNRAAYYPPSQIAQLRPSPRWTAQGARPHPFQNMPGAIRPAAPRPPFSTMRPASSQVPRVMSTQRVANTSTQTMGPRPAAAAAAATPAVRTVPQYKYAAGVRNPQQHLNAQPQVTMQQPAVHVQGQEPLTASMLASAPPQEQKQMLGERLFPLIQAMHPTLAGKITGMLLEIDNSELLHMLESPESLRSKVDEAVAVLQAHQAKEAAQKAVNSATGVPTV
# eIF4H FP inh: inhibitors of RNA binding by human eIF4H. Q15056. eIF4H fluorescence polarization binding assay. inhibition, % at 35 µM. 290,000 tested, 0.94% active;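 active = 50% or more with normal probe brightness, or confirmed in later tests; inconclusive = above 50% with abnormal brightness, or retests that disagree; inactive = below 50% or failed in later tests; about a fifth of its hits are not listed in these tables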;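 also: calls also rest on retests at 20 µM and on dose response follow-up; 0% = protein and probe with vehicle and 100% = probe without protein; strong numbers were not always called active; many hits fall short of the cut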
# Yeast UUG start: modulators of start codon recognition fidelity in yeast | 350,000 tested, 0.13% active | activity score, % at 18.7 µM | S. cerevisiae UUG-firefly luciferase reporter, luminescence/redox ratio | AID 602363;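 active = replicate mean at a twofold rise or more, about +100% in these data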;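 also: firefly luciferase made from a UUG start codon reports start codon fidelity; reporter light over untreated wells divided by growth signal over untreated wells; some hits fall short of that in this replicate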
# CSC inhib: blocks cancer stem cells; inhibition, % at 7.5 µM; AID 2717; cancer stem cell-like cells viability, luminescence; 300,000 tested, 1.1% active;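 active = mean at 75% or more and at least half the replicates too; inconclusive = mean and replicates disagree; tested in HMLE shEcad cells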;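 also: 0% = median of negative and 100% = median of positive control wells; the first replicate is given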
# MT1-MMP act inh RFP: recorded beside MT1-MMP act inh, whose call it bears; RFP signal change, %; measured here: RFP expression control read;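 0 = vehicle wells; hits needed this value within 50% of zero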
# Starred values were filed as active, the others as inactive; i = inactive; ? = inconclusive; / = not tested or not shown; + = active, no number; & = joins results of further samples. Not all compounds are listed (hit frequency here may not be typical).
SMILES,Rce1 inh,Env fusion inh,MT1-MMP act inh,MT1-MMP act inh RFP,PABP FP inh,eIF4H FP inh,Yeast UUG start,CSC inhib
COc1ccccc1CNC(=O)COC(=O)Cc1ccc(F)cc1,i,-16,9,-2,/,/,/,-13
S=C(NCCc1ccccc1)N1CCN(C23CC4CC(CC(C4)C2)C3)CC1,i,6,2,-3,4,-11,-15,53
CCOC(=O)N1CCN(C(=O)CS(=O)(=O)c2cn(Cc3ccccc3Cl)c3ccccc23)CC1,i,-7,-3,-8,1,-1,-6,10
CC1CN(S(=O)(=O)c2cccc(C(=O)NCC(c3cccs3)N3CCOCC3)c2)CC(C)O1 (stereo not drawn),/,-3,4,1,/,/,-15,/
Cc1ccc(S(=O)(=O)/N=C(/Nc2c(C)n(C)n(-c3ccccc3)c2=O)c2ccccc2)cc1,i,-10,2,2,-5,-3,-2,9
CCOC(=O)C1CC2=C(CCCC2=O)N(Cc2ccccc2)C1=O (stereo not drawn),/,-6,4,5,/,/,-4,/
COC(=O)C(F)(Sc1c(C)n(C)n(-c2ccccc2)c1=O)C(F)(F)F (stereo not drawn),i,5,1,6,-7,-3,-14,-4
CN=C1SC(CC(=O)NCCc2ccc(OC)c(OC)c2)C(=O)N1C (stereo not drawn),i,-4&-54,0&-1,6&-1,1,3,-8,-8
COc1ccc(-n2nc(C(=O)NCC(=O)N3CCC(C)CC3)c3ccccc3c2=O)cc1,+,-47,-3,-1,12,-4,-9,16
CC(C)(C)c1ccc(C(=O)C=[N+]=[N-])cc1,i,/,1,4,16,13,6,-16
CN(/C(=N/S(=O)(=O)c1ccccc1)c1ccccc1)S(=O)(=O)c1ccccc1,i,-10,-2,3,7,-5,4,-8
C[C@]1(C2CCCC2)Cc2cc(OCC(=O)O)c(Cl)c(Cl)c2C1=O,i,-10,2,1,/,/,3,-7
CC(C)(C)CC(C)(C)N=C1NS(=O)(=O)c2cc([N+](=O)[O-])ccc21,i,17,0,-4,-4,-5,/,5
Cc1nn(Cc2ccccc2)c(C)c1NC(=O)c1ccc([N+](=O)[O-])cc1[N+](=O)[O-],i,/,8,-1,-5,7,0,7
COc1ccc(C2(C)NC(=O)N(CC(=O)NC3CC3)C2=O)cc1 (stereo not drawn),/,8,0,0,/,/,-11,-24
O=C(NCCN1CCN(C(=O)c2c(F)cccc2F)CC1)C(=O)Nc1ccc(Cl)cc1,i,-2,5,-1,-27,-13,-2,1
Cc1cc(C)c2c(c1)OC(O)(C(F)F)CC2=O (stereo not drawn),i,/,2,5,4,-8,-12,3
Cc1ccc(OCC(=O)NCCNC(=O)c2ccco2)cc1,i,24,-1,2,5,0,-18,/
CCOc1ccc(Nc2cc(C)nc(N3CCOCC3)n2)cc1,i,/,1,0,8,4,-11,3
COc1ccc(CCNC(=O)CC2SC(=NCc3ccccc3)NC2=O)cc1 (stereo not drawn),i,-3,3,2,31,12,-6,1
Cc1ccc(O)c(NC(=S)NC(=O)Cc2ccc(Cl)cc2)c1,i,0,-2,-23,6,-4,-27,3
Cc1cc(NC(=O)C(C)SCC(=O)O)no1 (stereo not drawn),i,2,2,3,-8,1,/,-9
COc1ccc(C2NS(=O)(=O)N=C2N)cc1 (stereo not drawn),i,12,-1,1,-1,-6,/,4
O=C(CC1Nc2ccccc2NC1=O)NCCc1ccccc1 (stereo not drawn),i,-42,-9,4,8,0,-17,-8
O=C(CSc1nnc(SCc2ccc(Cl)cc2)s1)N/N=C/c1ccccc1Cl,i,16,-1,-5,4,2,-4,58

# Arranged by count of non-hydrogen atoms (lowest first): eleven of the compounds above.
SMILES,Rce1 inh,Env fusion inh,MT1-MMP act inh,MT1-MMP act inh RFP,PABP FP inh,eIF4H FP inh,Yeast UUG start,CSC inhib
CC(C)(C)c1ccc(C(=O)C=[N+]=[N-])cc1,i,/,1,4,16,13,6,-16
COc1ccc(C2NS(=O)(=O)N=C2N)cc1 (stereo not drawn),i,12,-1,1,-1,-6,/,4
Cc1ccc(O)c(NC(=S)NC(=O)Cc2ccc(Cl)cc2)c1,i,0,-2,-23,6,-4,-27,3
COc1ccc(C2(C)NC(=O)N(CC(=O)NC3CC3)C2=O)cc1 (stereo not drawn),/,8,0,0,/,/,-11,-24
COC(=O)C(F)(Sc1c(C)n(C)n(-c2ccccc2)c1=O)C(F)(F)F (stereo not drawn),i,5,1,6,-7,-3,-14,-4
S=C(NCCc1ccccc1)N1CCN(C23CC4CC(CC(C4)C2)C3)CC1,i,6,2,-3,4,-11,-15,53
COc1ccc(CCNC(=O)CC2SC(=NCc3ccccc3)NC2=O)cc1 (stereo not drawn),i,-3,3,2,31,12,-6,1
Cc1nn(Cc2ccccc2)c(C)c1NC(=O)c1ccc([N+](=O)[O-])cc1[N+](=O)[O-],i,/,8,-1,-5,7,0,7
O=C(NCCN1CCN(C(=O)c2c(F)cccc2F)CC1)C(=O)Nc1ccc(Cl)cc1,i,-2,5,-1,-27,-13,-2,1
Cc1ccc(S(=O)(=O)/N=C(/Nc2c(C)n(C)n(-c3ccccc3)c2=O)c2ccccc2)cc1,i,-10,2,2,-5,-3,-2,9
CCOC(=O)N1CCN(C(=O)CS(=O)(=O)c2cn(Cc3ccccc3Cl)c3ccccc23)CC1,i,-7,-3,-8,1,-1,-6,10

# Carrying on:
SMILES,Rce1 inh,Env fusion inh,MT1-MMP act inh,MT1-MMP act inh RFP,PABP FP inh,eIF4H FP inh,Yeast UUG start,CSC inhib
CCOC(=O)C1CCCN(Cc2ccccc2F)C1 (stereo not drawn),i,/,7,3,0,-4,-17,-18
COc1cc(C(=O)OCC(=O)N2CCCC2)cc(OC)c1OC,i,/,7,8,-12,-6,-13,30
CCOc1cc(C2C(C(C)=O)=C(O)C(=O)N2CCc2c[nH]c3ccccc23)ccc1O (stereo not drawn),i,-3,4,-2,0,0,/,2
Cc1ccc2cc(CCNC(=O)C3CCCCC3)c(=O)[nH]c2c1C,i,9,2,4,-9,2,-9,-5
Cc1ccnc2nc(C(=O)Nc3nc(-c4ccccn4)cs3)nn12,i,2,3,7,?,?,/,7
CCCCNc1c(-c2ccc(SC(C)CC)c(OC)c2)nc2ccc(Cl)cn12 (stereo not drawn),/,32,2,-10,/,/,-19,56
CC1([N+](=O)[O-])COC2(OC1)C(=O)Nc1ccccc12 (stereo not drawn),i,7,-2,2,2,-10,-2,-17
Cc1cccc(C)c1OCc1cc(C(=O)N(C)Cc2cc(C3CC3)n[nH]2)no1,i,0,3,-5,1,4,7,13
COC(=O)c1c(-c2c(Cl)cccc2Cl)noc1NC(=O)N(C)C,i,7,0,2,6,-4,/,-7
COc1ccc(NC(C)=O)cc1S(=O)(=O)N1CCc2ccccc21,i,16,6,2,-2,-3,-2,-4
CC(C)CCNC(=O)c1cccnc1Sc1ccccc1,i,/,-4,-1,1,10,/,-12
CCCc1nn2c(=O)cc(CSCC(=O)Nc3ccccc3)nc2s1,i,-15,2,6,/,/,-6,-13
COc1ccc2c(c1)CCc1c(C(=O)Nc3ccc(OC)c(OC)c3)noc1-2,i,-33,6,0,1,-1,/,-3
CN(CC(=O)Nc1ccc(F)cc1)C(=O)COC(=O)CCN1C(=O)C2CC=CCC2C1=O (stereo not drawn),i,/,4,8,1,-18,-2,/
CCOc1ccccc1N1CCN(C(=O)c2ccc3[nH]c(C)c(C)c3c2)CC1,i,0,-6,-13,-9,-19,10,60
CCCn1nnnc1SCC(=O)c1ccc2c(c1)OCCO2,i,/,-6,0,10,-5,-8,-13
Cc1cc(C)c2oc(-c3cccc(N)c3)nc2c1,i,-380,-1,-3,0,4,-31,-12
COc1ccccc1N(C)S(=O)(=O)c1ccc(C(=O)NC2CCCCC2)cc1,/,/,3,-5,/,/,10,-1
COc1ccc2[nH]c(=O)c(CN(Cc3ccco3)C(c3nnnn3Cc3ccccc3)C(C)C)cc2c1 (stereo not drawn),i,54*,-5,-1,10,6,-11,21
CCOc1ccccc1NC(=O)C1CCN(c2nc(-c3ccc(OC)cc3)no2)CC1,i,-15,-1,-8,-2,-27,-12,6
CCN1CCN(C(=O)CSc2nc3c(c(=O)n(C)c(=O)n3C)n2C)CC1,i,-5,-3,0,-3,0,2,/
COc1ccc(-c2sc(NC(C)=O)nc2-c2ccccc2)cc1,i,-7,3,1,2,2,/,/
COc1ccccc1C(=O)NCCC(=O)NC1CCC(C)CC1 (stereo not drawn),/,-30,3,4,/,/,-16,/
CCOC(=O)c1[nH]c(C)c(C(=O)N2CCN(c3ccccc3OC)CC2)c1C,i,-14,-6,0,3,-1,9,-19
O=C(O)c1cc(NC(=S)NC(=O)C(c2ccccc2)c2ccccc2)ccc1Cl,i,-3,-3,2,-1,-13,/,30

# Next entries:
SMILES,Rce1 inh,Env fusion inh,MT1-MMP act inh,MT1-MMP act inh RFP,PABP FP inh,eIF4H FP inh,Yeast UUG start,CSC inhib
COc1ccc(OCc2nnc(SCC(=O)c3c(N)n(C)c(=O)n(C)c3=O)n2-c2ccccc2F)cc1,i,/,/,/,6,-10,/,17
COCCNS(=O)(=O)c1ccc(C)c(C)c1C,i,10,1,4,38,2,/,-13
CC(=O)Nc1nc(S(=O)(=O)c2ccc(C)cc2)c(Cl)s1,i,-56,4,-2,0,-7,/,/
O=C(O)c1ccc2c(c1)NC(=O)C(N1CCCC1)S2 (stereo not drawn),i,-7,-9,0,35,49,-8,-12
COc1cccc(CNC(=O)C2CCCN(S(=O)(=O)c3cccc4nonc34)C2)c1 (stereo not drawn),i,/,-2,-4,-12,-4,2,6
Cc1c(C)n2c(SCC(=O)NC3CCCCC3)nnc2[nH]c1=O,i,-5,6,9,/,/,/,-2
Cc1ccc(NC(=O)C2CCCN(C(=O)c3ccc(Cl)cc3)C2)c(C)c1 (stereo not drawn),i,5,-1,5,-2,-10,3,-3
CCN1CCN(Cc2ccc(NC(=O)c3cc(NC(=O)c4cnn(-c5ccccc5)c4N)cc(OC)c3)cc2C(F)(F)F)CC1,i,-6,5,-4,-6,-6,-3,131*
Cc1cc(C)c(NC(=O)CSc2nc3ccc(NC(=O)CSc4nnnn4-c4ccccc4)cc3s2)c(C)c1,i,9,0,1,9,6,/,-1
C[C@H](CO)N1C[C@H](C)[C@@H](CN(C)Cc2ccccc2)Oc2ccc(NC(=O)CCCCCC(=O)Nc3ccccc3N)cc2C1=O,/,6,16,13,/,/,23,19
CC(=O)Nc1ccc(NC(=O)C(C)Oc2ccccc2F)cc1 (stereo not drawn),/,-23,-1,-1,5,-12,-3,4
Cc1cccc(NS(=O)(=O)c2cccc(C(=O)N3CC(C)OC(C)C3)c2)c1 (stereo not drawn),i,/,-4,-6,/,/,/,1
CCOc1ccccc1Oc1cn[nH]c1-c1ccc(OCC(=O)NN)cc1O,i,-6,2,-3,-4,9,-7,/
COC(=O)N/N=C/c1ccc([N+](=O)[O-])s1,i,/,-3,-2,-2,?,-22,-16
CCOC(=O)C1=C(C)N(CCCCCC(=O)O)C(=O)NC1c1ccccc1OS(=O)(=O)c1ccc(C)cc1 (stereo not drawn),i,10,1,0,/,/,-1,-9
N#Cc1c(-c2ccccc2)nc(SCC(=O)Nc2ccccc2)[nH]c1=O,/,3,-1,1,-6,0,0,11
O/N=C/C1=C(Cl)c2ccccc2CC1,i,-7,-2,-1,0,-1,/,4

# Compound activity (PubChem BioAssay)
